CSC inhib: cancer stem cell inhibition; cancer stem cell-like cells viability, luminescence; inhibition, % at 7.5 µM; 300,000 compounds, 1.1% hits; AID 2717;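 active = mean at 75% or more and at least half the replicates too; inconclusive = mean and replicates disagree; tested in HMLE shEcad cells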;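 also: 0% = median of negative and 100% = median of positive control wells; the first replicate is given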
UUG fidelity: alters start codon recognition fidelity in yeast | activity score, % at 18.7 µM | S. cerevisiae UUG-firefly luciferase reporter, luminescence/redox ratio | AID 602363 | 350,000 compounds, 0.13% hits;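 active = replicate mean at a twofold rise or more, about +100% in these data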;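 also: firefly luciferase made from a UUG start codon reports start codon fidelity; reporter light over untreated wells divided by growth signal over untreated wells; some hits fall short of that in this replicate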
HIV Env fusion: HIV envelope-mediated fusion inhibition; HeLa-JRFL Env/CEM21 cell fusion, luciferase; inhibition, % at 12.3 µM; 360,000 compounds, 1.1% hits;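 active = mean replicate inhibition score of at least 50 and every replicate individually at or above 50; inconclusive = only one of the two criteria met; inactive = mean below 50 and not all replicates reaching 50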;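 also: 0% = plate neutral controls and 100% = maraviroc near 300 nM; one replicate is shown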
eIF4H inh: inhibitors of RNA binding by human eIF4H; Q15056; eIF4H fluorescence polarization binding assay; inhibition, % at 35 µM; 290,000 compounds, 0.94% hits;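 active = 50% or more with normal probe brightness, or confirmed in later tests; inconclusive = above 50% with abnormal brightness, or retests that disagree; inactive = below 50% or failed in later tests; about a fifth of its hits are not listed in these tables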;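 also: calls also rest on retests at 20 µM and on dose response follow-up; 0% = protein and probe with vehicle and 100% = probe without protein; strong numbers were not always called active; many hits fall short of the cut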
PABP polyA inh: PABP-poly(A) binding inhibition. PABP-poly(A) RNA binding, fluorescence polarization. inhibition, % at 35 µM. 290,000 compounds, 1% hits;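 active = 50% or more with normal probe brightness, or confirmed in later tests; inconclusive = above 50% with abnormal brightness, or retests that disagree; inactive = below 50% or failed in later tests; about a fifth of its hits are not listed in these tables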;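 also: calls also rest on retests at 20 µM and on dose response follow-up; controls were probe without protein and protein plus probe with vehicle; some compounds called inactive have numbers as strong as hits; many hits fall short of the cut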
MT1-MMP act inh: MT1-MMP (human) activation inhibition. HT1080 RFP-PRO-GFP cells, GFP/RFP ratio fluorescence, overnight; percent of plate control window, DMSO zero. GFP/RFP ratio change, % at 20 µM. 360,000 compounds, 0.061% hits. AID 651647;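 active = GFP/RFP ratio change of at least 30% with cell ATP level not reduced by more than half and red fluorescence within 50% of control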; also: strong numbers were not always called active
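Test system: HT1080 RFP-PRO-GFP cells; Benchmarks: DMSO and RFP-L50D-GFP cell wells; Timing: cells overnight before dosing, compound overnight, 37 °C, 5% CO2; Compound: one 20 µM compound dose with 1% DMSO; Read-out: GFP/RFP fluorescence ratio.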
Rce1 inhib: yeast Ras-converting enzyme inhibition. AID 2563. calls only. yeast membranes, quenched prenylated peptide cleavage fluorescence. Q03530. 290,000 compounds, 0.27% hits;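 active = fall in fluorescence gain of 50% or more versus controls, with final raw signal at or below 3038400; inconclusive = same 50% fall but final raw signal above 3038400; inactive = fall in fluorescence gain under 50%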;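 also: plate controls were neutral control wells for no effect and wells lacking membranes for full effect; tested at 10 µM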
Target sequence (Q03530 whole entry, looked up): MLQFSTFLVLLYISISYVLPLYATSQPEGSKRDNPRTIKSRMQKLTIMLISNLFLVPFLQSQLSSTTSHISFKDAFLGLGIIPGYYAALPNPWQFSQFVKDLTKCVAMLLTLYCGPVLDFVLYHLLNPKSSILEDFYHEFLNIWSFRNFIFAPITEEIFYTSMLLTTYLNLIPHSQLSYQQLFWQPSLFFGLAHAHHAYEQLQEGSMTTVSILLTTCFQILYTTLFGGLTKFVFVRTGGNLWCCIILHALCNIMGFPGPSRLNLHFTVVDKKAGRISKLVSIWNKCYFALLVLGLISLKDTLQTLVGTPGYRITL
MT1-MMP act inh RFP: also measured in MT1-MMP act inh; calls as there; RFP signal change, %; measured here: RFP expression control read;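 0 = vehicle wells; hits needed this value within 50% of zero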
Numbers without * were called inactive; i = inactive; ? = inconclusive; / = no result given.

Values run as follows: CSC inhib	UUG fidelity	HIV Env fusion	eIF4H inh	PABP polyA inh	MT1-MMP act inh	MT1-MMP act inh RFP	Rce1 inhib
- COc1ccc(C2CC(c3ccccc3)=NN2C(=O)CSc2ncn[nH]2)cc1 (stereo not drawn)
 : -29	/	-29	-8	-10	1	-2	i
- CCOC(=O)C1=C(COC(=O)[C@@H](NC(=O)c2cccc(C)c2)C(C)C)NC(=O)NC1C (stereo partly drawn)
 : -12	11	6	/	/	0	-3	/
- Cc1cccc(C)c1OCC(O)CN1CCN(c2ccccn2)CC1 (stereo not drawn)
 : 1	/	6	1	-6	1	4	i
- O=C(CN1C(=O)COc2ccccc21)N(Cc1cccnc1)Cc1ccccc1F
 : -14	/	/	2	3	-3	3	i
- COC(=O)c1c(C)oc(C)c1S(=O)(=O)Nc1ccc(C(C)C)cc1
 : -7	-1	10	3	1	3	-7	i
- CC1CCCC(NC2CCCCNC2=O)C1 (stereo not drawn)
 : -9	-11	-79	-3	-3	2	-1	i
- COc1cccc(/C=N/n2c(N)nc3ccccc32)c1OC
 : 5	-21	-58	9	4	4	-4	i
- Cc1cc(=O)n2nc(N3CCC(C(=O)NC(C)c4ccccc4)CC3)sc2n1 (stereo not drawn)
 : -6	-26	8	2	4	-2	2	i
- Cc1cccc(C2Nc3ccccc3C(=O)N2NC(=O)c2ccc([N+](=O)[O-])cc2)n1 (stereo not drawn)
 : -6	-19	-52	11	-9	1	4	i
- O=C(CSc1nc2ccccc2c(=O)n1CCCN1CCOCC1)Nc1ccc(Br)cc1
 : 2	-6	22	/	/	2	2	/
- O=c1c2ccccc2[nH]c2ccccc12
 : -3	-11	/	-7	17	-1	-16	/
- Cc1cc(SCCOc2ccccc2)nc(N)n1
 : /	/	i	4	8	4	-2	i
- CC(C)NCC(O)COc1ccc(COCCOC(C)C)cc1 (stereo not drawn)
 : -1	-6	-2	/	/	2	4	i
- CCS(=O)(=O)c1ccc2c(c1)N(S(C)(=O)=O)CC(C(=O)NCc1ccccc1OC)O2 (stereo not drawn)
 : 3	-8	33	4	-6	6	4	/
- CCCCOC(=O)CCN1C(=O)/C(=C2\SC(=S)N(CCC(=O)OCCCC)C2=O)SC1=S
 : -5	1	/	-7	-10	27	30	i
- NC(=O)c1ccccc1OCC(=O)c1ccc(Cl)cc1
 : /	/	-5	-2	10	-1	2	i
- CN(C)Cc1cc(CCNC(=O)c2ccc(Cl)cc2)ccc1O
 : -4	-31	/	0	0	1	5	i
- O=C(Nc1nc2ccccc2[nH]1)c1cccc(S(=O)(=O)N2CCOCC2)c1
 : 9	/	-46	-7	-3	6	4	i
- CC1CC(=O)Nc2ccccc2N1C(=O)Nc1ccc(F)cc1F (stereo not drawn)
 : -8	-23	-17	-8	-1	-4	0	i
- COc1ccc(OC)c(CN2CCN(C(=O)CCNC(=O)c3ccc(Br)cc3)CC2)c1
 : -7	-5	/	/	/	/	/	i
- CCc1ccc(NC(=S)N(Cc2cccnc2)Cc2ccco2)cc1
 : 5	45	14	0	23	2	-6	i
- COc1ccc([N+](=O)[O-])cc1C(=O)Nc1ccc(OCC(=O)N2CCOCC2)cc1
 : -3	/	-6	-3	-5	3	2	i
- O=C1CSC(c2ccc([N+](=O)[O-])cc2)N1c1ccccc1F (stereo not drawn)
 : 0	-11	-1	-7	2	2	1	i
- CCC(C)[C@@H](C(=O)NCC1CCC(C(=O)O)CC1)n1nnc2ccccc2c1=O (stereo partly drawn)
 : -12	/	4	-8	9	-3	-1	i
- CCCCCCCC(=O)Oc1ccc(C(=O)Nc2cc(C)on2)cc1
 : -7	11	-3	-2	-11	1	5	i
- Cc1c(NC(=O)C(C)OC(=O)c2cccnc2Cl)c(=O)n(-c2ccccc2)n1C (stereo not drawn)
 : -10	-10	-8	/	/	-4	0	/
- O=C(NCc1ccc(F)cc1)NC(=O)c1ccc(Cl)cc1
 : -17	-15	21	-6	-8	1	0	i
- Cc1ccccc1C(=O)Nc1ccc(S(=O)(=O)N2CCCC2)cc1
 : 3	-4	-11	1	-5	2	-12	i
- Cc1sc2nc(C3CC3)nc(N3CCN(C(=O)c4ccc(Cl)cc4)CC3)c2c1C
 : 10	-25	15	-7	4	-5	-8	i
- CCc1ccc(C(=O)COC(=O)C2CCN(c3ccc(C(F)(F)F)cn3)CC2)cc1
 : -18	-20	5	/	/	2	0	i
- CNS(=O)(=O)/C=C/c1ccccc1
 : -6	/	6	2	-6	1	1	i
- O=C1c2ccccc2C(=O)N1CCCn1c(=O)oc2ccccc21
 : -5	-9	/	8	5	5	3	i
- C=CCn1c(=N)n(CC(=O)c2ccccc2)c2ccccc21
 : 14	-33	8	-12	-3	3	3	i
- COc1ccc2[nH]c(=O)c(CN(C(=O)c3cccnc3)c3ccc(C)c(C)c3)cc2c1
 : 0	/	16	-4	0	-6	-2	i
- O=C(c1ccc(F)cc1Cl)N1CCN(CCc2ccccc2)CC1
 : -14	3	10	1	-5	0	1	i
- COc1cccc(CNC(=O)CN2C(=O)COc3ccc(S(=O)(=O)N4CCCC4)cc32)c1
 : -3	-4	10	1	9	-2	2	i
- COc1ccc(-c2csc(NC(=S)NC(=O)/C=C/c3ccco3)n2)cc1Br
 : 79*	-11	-226	12	-8	5	-2	i
- O=C(CSc1ccccn1)Nc1ccc2c(c1)OCO2
 : -4	-14	-15	2	-1	-2	-2	/
- O=S(=O)(c1ccc2c(c1)OCCO2)N1CCNCC1
 : 0	-14	-4	1	-2	0	1	i
- CN1CCC(N(C)C(=O)c2ccc(Cl)c(S(=O)(=O)N3CCOCC3)c2)CC1
 : /	11	-23	/	/	-4	2	/
- O=C(Cc1cccs1)N=Nc1c(O)[nH]c2ccc(Br)cc12
 : 7	-10	0	2	-3	3	4	i
- O=C(O)C1CCN(S(=O)(=O)c2cccc3cccnc23)CC1
 : /	2	-6	-4	-11	1	3	i
- Clc1ccc(C[n+]2cc(-c3ccccc3)n3c2CCC3)cc1Cl
 : -4	-12	?	-4	-8	-11	-12	i
- C=CCn1c(=NC(=O)c2ccco2)sc2cc(C(=O)OC)ccc21
 : -14	/	-10	-13	?	3	-1	i
- Cc1ccccc1C(=O)c1cccn1CC(=O)NC(C)c1ccc2c(c1)OCCO2 (stereo not drawn)
 : 2	8	2	0	-3	-3	-4	i
- O=C1CCCC2=C1C(c1ccncc1)n1c(nc3ccccc31)N2 (stereo not drawn)
 : -6	/	25	11	1	0	-1	i
- COc1cc(C2=NOC(C(=O)NCc3ccc(F)cc3)C2)cc(OC)c1OC (stereo not drawn)
 : /	2	-3	8	-8	13	-3	i
- COCCn1cnnc1SCC(=O)Nc1cc(OC)c([N+](=O)[O-])cc1C
 : /	/	1	-1	2	2	1	i
- Cc1ccc2oc(=O)c3cc(C(=O)NCCCN4CC(C)CC(C)C4)sc3c2c1 (stereo not drawn)
 : 11	-25	-7	-4	-1	5	5	i
- CCOC(=O)CSc1n[nH]c(NC(=O)c2ccccc2)n1
 : -9	-17	/	5	-10	0	2	i
- CC(C)CCC(C)N=Cc1c(O)n(Cc2ccccc2)c(=O)c2ccccc12 (stereo not drawn)
 : -2	/	/	2	2	-9	-8	i
- O=[N+]([O-])c1ccc(N=Cc2ccc(Br)c([N+](=O)[O-])c2)cc1
 : -16	/	3	-1	7	0	1	i
- Cc1nc(N2CCC3(CC2)OCCO3)c2nnn(Cc3ccccc3F)c2n1
 : -19	9	/	1	-5	-4	-7	i
- COc1ccc(NC(=O)C(=O)c2cn(CC(=O)N3CCCC3)c3ccccc23)cc1
 : 1	3	-464	-13	-7	9	-4	i
- O=C(c1ccco1)N1CCN(C23CC4CC(CC(C4)C2)C3)CC1
 : 1	-5	-25	8	1	0	5	i
- COc1cccc(CCC(=O)Nc2cc3c(cc2C(=O)O)OCCCO3)c1OC
 : -5	-1	/	/	/	1	1	/
- O=C(CSc1ccc2c(c1)OCCO2)Nc1cccnc1Cl
 : -11	-3	-21	3	16	6	-4	i
- CCOC(=O)N1CCN(CC(O)COc2c(C)cccc2C)CC1 (stereo not drawn)
 : -1	/	-32	2	-1	4	3	i
- FC(F)(F)c1ccc(-c2csc(-c3ccno3)n2)cc1
 : 18	/	-9	-1	0	-1	-4	i
- CSc1ccc(-c2nc(CSCC(=O)NCCCN3CCOCC3)c(C)o2)cc1
 : -18	/	6	-1	0	0	1	i

New compounds follow:
Values run as follows: CSC inhib	UUG fidelity	HIV Env fusion	eIF4H inh	PABP polyA inh	MT1-MMP act inh	MT1-MMP act inh RFP	Rce1 inhib
- Cc1ccc(NC(=O)c2sc3nc(C)nc(N4CCN(c5ccccn5)CC4)c3c2C)c(C)c1
 : 23	-12	25	-2	33	2	-11	i
- CS(=O)(=O)c1ccc(C(=O)NCC2(N3CCCCC3)CCCCC2)cc1
 : 6	/	-7	9	4	1	5	i
- COC(=O)NC(=S)Nc1ccc(Oc2ccc(Cl)cc2Cl)c(Cl)c1
 : /	-20	-27	-1	-16	-6	-14	i
- COC(=O)c1ccc(CSCc2ccc(C#N)cc2)cc1
 : -12	/	/	-1	2	/	/	i
- CC1Oc2ccccc2N(CC(=O)NCc2ccccc2)C1=O (stereo not drawn)
 : 7	/	-16	-10	-1	-1	-1	i
- CCOC(=O)c1c(C)[nH]c(C(=O)N2CCN(CC)CC2)c1C
 : -8	-3	-4	-4	-9	3	3	i
- O=C(C1CCCN(c2ncnc3c2nc2n3CCCCC2)C1)N1CCN(c2cccc(Cl)c2)CC1 (stereo not drawn)
 : 45	-2	23	-14	3	-9	-14	i
- Cc1cc(N2C(=O)C3CC=CC(C)C3C2=O)no1 (stereo not drawn)
 : -10	-5	-50	-4	7	-3	3	i
- CCCCN1C(=O)C(CC(=O)NC2CCCC2)CC(C(=O)N(CC)CC)=C1C (stereo not drawn)
 : /	10	13	/	/	1	3	/
- COc1ccc2nc(NS(=O)(=O)c3ccc(NC(C)=O)cc3)sc2c1
 : /	-18	/	-10	2	1	3	i
- O=C(c1ccc(-c2cccc(C(F)(F)F)c2)o1)N1CCN(c2ccccc2O)CC1
 : /	-11	12	-4	8	-3	-1	i
- CCOCC(=O)Nc1cc(C(F)(F)F)ccc1Oc1cccc(Br)c1
 : 4	-22	/	-8	4	-3	-7	i
- CCCCn1c(N)c(N(CCOC)C(=O)CN(C)CC(=O)Nc2ccc(Cl)c(Cl)c2)c(=O)[nH]c1=O
 : -15	-4	/	/	/	-2	-4	/
- CC1(N2CCOCC2)CC2(O)C(=[N+]1[O-])CCc1c2no[n+]1[O-] (stereo not drawn)
 : -9	-18	/	4	2	-4	0	i
- COc1ccc(NS(=O)(=O)c2cc(Cl)ccc2Cl)cc1S(=O)(=O)N1CCCCC1
 : -10	/	-20	-13	-4	-2	-3	i
- COC(=O)c1sccc1N/C=C(\C#N)S(=O)(=O)C(C)(C)C
 : -18	-9	-18	0	-4	2	3	i
- CCc1ccc(C(C(=O)NC2CCCC2)N(CCOC)C(=O)CCC(=O)Nc2cc(C)on2)cc1 (stereo not drawn)
 : -20	-3	6	1	0	2	2	i
- O=C(c1ccccc1)N1CCN(c2ncnc3sc4c(c23)CCC4)CC1
 : 2	-5	87*	-4	6	-7	-17	i
- COc1cccc(CN2CCN(C(=O)Nc3ccc([N+](=O)[O-])cc3)CC2)c1
 : 27	/	9	-14	-5	-2	-8	i
- Cc1ccc(C(=O)O/N=C2\CCS(=O)(=O)c3sccc32)cc1
 : -5	-20	/	1	-6	3	4	i
- O=C(Cc1cccc2ccccc12)NNC(=O)c1ccc(Br)o1
 : 4	-5	11	3	1	1	1	i

Screening results from PubChem.
